Bioassay records (PubChem)
VACV mCherry inh: vaccinia inhibition (mCherry reporter). Vaccinia virus mCherry reporter infection, fluorescence; about a quarter of the inactives have no number. Potency, µM (highest dose often 36.5 µM), inactives show at the highest dose activity change, negative = inhibition, most hits filed as inhibitors. 310,000 compounds, 0.63% hits; active = well fitted inhibition curve with a large enough effect; inconclusive = small, poorly fitted or top-dose-only effect; inactive = no such curve, though single readings can be large or run the other way; tested in A549 cells; further: nearly all actives have a fitted effect of over 35% in size; inactives centre near -10
VACV Venus inh: inhibitors of vaccinia virus (Venus reporter) | Vaccinia virus Venus reporter expression, fluorescence | AID 720580 | Potency, µM (series often up to 36.5 µM), for inactives: at the highest dose activity change, negative = inhibition, actives largely listed as inhibitors | 330,000 compounds, 0.46% hits; active means well fitted inhibition curve with a large enough effect; inconclusive means small, poorly fitted or top-dose-only effect; inactive means no such curve, though single readings can be large or run the other way; tested in A549 cells; further: nearly all actives have a fitted effect of over 30% in size; inactives centre near -10
Active calls of the source: *; i = inactive; ? = inconclusive; . = no result given; [ ] = another dose, or the depositor's remark. On the % scale 0 is the no-effect control and ±100 the full control effect; potency means the concentration at half of the fitted maximal effect.

The opening two entries (preview)
SMILES | VACV mCherry inh | VACV Venus inh
CCCCc1cc(=O)oc2c(CN(C)C)c(O)ccc12 | -15.1% | -10.8%
COc1ccc(N2CC(NS(=O)(=O)c3cccnc3)CC2=O)cc1 (stereo not drawn) | -24.6% | -10.7%

The whole of this part (from the top)
SMILES | VACV mCherry inh | VACV Venus inh
CCCCc1cc(=O)oc2c(CN(C)C)c(O)ccc12 | -15.1% | -10.8%
COc1ccc(N2CC(NS(=O)(=O)c3cccnc3)CC2=O)cc1 (stereo not drawn) | -24.6% | -10.7%
CCc1nc2nc(C)cc(Nc3cccc(C)c3C)n2n1 | i | -12.0%
CCc1c(C(=O)N/N=C/c2ccsc2)csc1C | -14.2% | -10.5%
Cc1ccc(NC(=O)COC(=O)Cn2ccc(=O)[nH]c2=O)cc1C | -6.9% | -2.6%
Cc1ccc(-n2nnnc2/C=C\Nc2cc(C)on2)cc1 | -15.5% | -9.6%
Cc1ccccc1-c1cc2nc(NCc3ccncc3)n(C)c(=O)c2s1 | -8.3% | -16.0%
CC(C)(C)OC(=O)N1CCN(C(=O)c2[nH]cnc2C(=O)Nc2cccc(Cl)c2)CC1 | -14.4% | ?
C=CCN=C1S/C(=C/c2ccc([N+](=O)[O-])cc2)C(=O)N1CC=C | ? | 5.7%[7.34 µM]
Cc1nc(SCC(=O)NC2(C#N)CCCC2)n(CC(C)C)c1C | i | -8.3%
Cc1cccn2c(=O)c(/C=C(\C#N)C(=O)NCc3ccco3)c(N3CCC(C(N)=O)CC3)nc12 | i | -17.6%
COCCNC(=O)c1ccc(Cl)c(S(=O)(=O)Nc2cccc(C)c2C)c1 | -3.7% | -14.0%
Cc1ccc(NC(=O)CSc2nnnn2-c2ccc3c(c2)OCO3)cc1C | -2.4% | -13.2%
COc1ccc(-c2cc(C(=O)Nc3ccc(NC(C)=O)cc3)[nH]n2)c(C)c1 | 2.0% | 8.1%
O=C(COc1ccc(Cl)cc1)NCc1ccc(F)cc1 | -13.3% | -1.4%
COc1ccc(NC(=S)NNC(=O)c2cccs2)cc1 | i | -8.4%
O=[N+]([O-])c1ccc(Cl)c(S(=O)(=O)Nc2ccc(-c3ccc(N4CCOCC4)nn3)cc2)c1 | ? | ?
Cc1ccc(/C=C(\C#N)c2nc(-c3ccc(-c4ccccc4)cc3)cs2)cc1 | -9.0% | -2.3%
COCCN(CC1CCCN(C2Cc3ccccc3C2)C1)C(=O)CCC(N)=O (stereo not drawn) | -5.1% | -10.3%
CNS(=O)(=O)c1cn(CC(=O)NCc2cccc(OC)c2)cc1S(=O)(=O)NC | i | 4.3%
O=C(CNc1ccc(Br)cc1)c1ccc(O)cc1 | -17.9% | -6.4%
Cc1cc(C)cc(OCC(=O)Nc2ccc(N3CCCCC3)cc2)c1 | -1.1% | -14.8%
CN(C(=O)COc1ncnc2ccccc12)C1CCCCC1 | i | -9.1%
CCc1nc2c(OCC(=O)c3ccc(Cl)cc3Cl)cccn2c1N(C=O)Cc1ccc(OC)cc1 | -21.5% | ?
O=C(NCc1ccccc1)C1=C[C@H](C2CC2)C[C@H](OCc2ccc(CO)cc2)O1 | i | -10.1%
CS(=O)(=O)N(CC(=O)N/N=C/c1cc2c(cc1Br)OCO2)c1ccccc1Br | -12.7% | -21.1%
Cc1nc2c(-c3ccccc3)c(C)[nH]n2c(=O)c1Cl | -5.1% | 19.9%
CCc1ccc(N2CN(Cc3ccco3)CNC2=S)cc1 | -7.9%[7.34 µM] | -3.6%[7.34 µM]
CCc1nc2ccc(C(=O)NC3CCN(Cc4ccccc4)CC3)cn2c1N(C)CCN1CCOCC1 | 21.3% | -3.5%
COc1ccc(N2C(=O)CC(c3ccccc3)C2=O)cc1 (stereo not drawn) | -11.8% | -11.0%
CCOC(=O)c1csc(NC(=O)C2CCCCC2)n1 | i | -11.0%
O=C(Nc1cccc(-c2nc3ccccc3s2)c1)c1cccs1 | 2.5% | 2.0%
O=C(c1ccc(O)cc1)c1ccc(Cl)cc1 | . | -6.6%
O=C(NC(=O)c1ccc(F)cc1F)Nc1ccc(Cl)cc1 | i | -3.6%
CSc1ccc(CN2CCC(N3CC(C)OC(C)C3)CC2)cc1 (stereo not drawn) | -10.6% | -11.1%
Cc1ccccc1S(=O)(=O)NC(=O)C1(C)CCN1C(=O)c1cccc(F)c1 (stereo not drawn) | 57.7%[activator] | -0.9%
O=C(c1nn2c(C(F)(F)F)cc(-c3ccc(F)cc3)nc2c1Cl)N1CCOCC1 | ? | ?
Cc1ccccc1OCC(=O)Nc1ccc(OCc2cc(=O)n3ccccc3n2)cc1 | -15.0% | 7.8%
COc1ccc(C(=O)N2CCC(C)(C(=O)NS(=O)(=O)C3CC3)C2)c(OC)c1 (stereo not drawn) | 6.8% | 6.3%
Cc1ccc(N(CC(=O)Nc2ccc(Cl)cc2)S(=O)(=O)c2cccc3nonc23)cc1 | -16.3% | -11.3%
CC(C)(C)c1ccc(C(=O)Nc2ccc(O)c3c(=O)cc(-c4cccc(Cl)c4)oc23)cc1 | -1.7% | ?
Brc1cc(Br)cc(CN2CCSCC2)c1 | -4.0% | -16.6%
CCOC(=O)C1=C(C)NC(=O)NC1c1cc(Br)c(O)c(OC)c1 (stereo not drawn) | . | -4.4%
COc1cc(NC(=NS(=O)(=O)c2ccccc2)c2ccccc2)ncn1 | -2.3% | -13.5%
COc1ccccc1NC(=O)C(CC(=O)O)Cc1cc(C)cc(C)c1 (stereo not drawn) | -15.0% | -3.6%
O=C(c1ccco1)N1CCN(C(c2cccs2)c2nnnn2C2CCCC2)CC1 (stereo not drawn) | -15.0% | -14.5%
COc1cc(NS(=O)(=O)c2ccc(NC(=O)c3ccc(C(C)=O)cc3)cc2)nc(OC)n1 | -13.0% | -10.5%
CCCCN1CC(c2nc3ccccc3n2CCCCOc2cccc(C)c2C)CC1=O (stereo not drawn) | -12.2% | -7.1%
O=C(Nc1ccc(-c2ccco2)cc1)C1CCCN(Cc2ccco2)C1 (stereo not drawn) | -17.6% | -19.7%
Cc1ccc(S(=O)(=O)c2nc(-c3ccccc3)oc2NCc2cccnc2)cc1 | . | ?
Cc1cccc(CN2CCC(N3CC(C)OC(C)C3)CC2)c1 (stereo not drawn) | -3.8% | -4.5%
CCOc1cc2sc(N3CCC(C(=O)Nc4ccccc4Cl)CC3)nc2cc1Br | 1.5% | -16.5%
CC1(c2ccc3ccccc3c2)NC(=O)N(CC(=O)Nc2cccc(S(=O)(=O)N3CCOCC3)c2)C1=O (stereo not drawn) | -19.3% | -4.2%
CCN(CC)S(=O)(=O)c1cccc(-c2nnc(SCc3nnc(-c4cccs4)o3)n2N)c1 | -11.1% | -15.3%
CC(=O)Nc1cccc(-c2cc(NC=O)c3ncc(-c4ccc(F)c(Cl)c4)n3c2)c1 | ? | ?
Cc1ccc(OCCC(=O)NCCc2ccc(S(N)(=O)=O)cc2)cc1 | -7.3% | -8.9%
COc1ccc(S(=O)(=O)N2CCN(CC3CC=CCC3)CC2)cc1 (stereo not drawn) | i | -2.4%
COc1cc(C(O)CO)ccc1OS(=O)(=O)O (stereo not drawn) | -16.6% | 10.3%
Cc1c(C(=O)Nc2nc(-c3ccc(F)cc3)ns2)oc2ccc(Cl)cc12 | 4.4% | 1.6%
CCc1ccc(/C=C(/C#N)C(N)=S)cc1 | -13.0% | -0.9%

Full records, looked up by structure. Order of values: VACV mCherry inh, VACV Venus inh
Listed for COc1cc(NS(=O)(=O)c2ccc(NC(=O)c3ccc(C(C)=O)cc3)cc2)nc(OC)n1 → -13.0%, -10.5%
Listed for Cc1cccc(CN2CCC(N3CC(C)OC(C)C3)CC2)c1 (stereo not drawn) → -3.8%, -4.5%
Listed for COc1ccccc1NC(=O)C(CC(=O)O)Cc1cc(C)cc(C)c1 (stereo not drawn) → -15.0%, -3.6%
Listed for CCN(CC)S(=O)(=O)c1cccc(-c2nnc(SCc3nnc(-c4cccs4)o3)n2N)c1 → -11.1%, -15.3%
Listed for COc1ccc(S(=O)(=O)N2CCN(CC3CC=CCC3)CC2)cc1 (stereo not drawn) → i, -2.4%

The list goes on:
SMILES | VACV mCherry inh | VACV Venus inh
C=CCn1c(O)c(N=NC(=O)OC(C)(C)C)c2ccccc21 | i | -7.2%
CCC(=O)N1CCc2cc(S(=O)(=O)NCCC(=O)Nc3cc(C)ccc3OC)ccc21 | -10.7% | -12.4%
Cc1ccc(Cc2c(-c3ccc(C)cc3)nc3cc(C)ccn23)cc1 | i | -11.6%
Cn1c(SCC(=O)NCc2ccccc2)nnc1-c1ccc(NC(=O)CCc2ccccc2)cc1 | . | 2.9%
Cc1cc(S(=O)(=O)N(Cc2ccccc2Cl)c2ccc3c(c2)CCC3)ccc1-n1cnnn1 | i | -6.2%
CC1(Cc2ccc(OC(F)(F)F)cc2)C(=O)Nc2ccc(S(=O)(=O)NC3CCCCC3)cc21 (stereo not drawn) | ? | ?
CCOC(=O)c1nnn(CC(=O)N2N=C(c3cc(C)ccc3C)CC2c2ccc(OC)cc2)c1C(=O)OCC (stereo not drawn) | -0.7% | -15.7%
O=C(CCCn1c(=O)[nH]c2cc(Cl)ccc2c1=O)NCCCN1CCCC1=O | . | 2.8%
COc1ccccc1CNc1nc(SC)ncc1CO | -12.8% | -6.2%
O=C(O)CSCC(=O)Nc1cccc2ccccc12 | -14.9% | -7.2%
Cc1oc(C(=O)O)cc1COc1ccc2c(C)cc(=O)oc2c1 | -10.0% | ?
Cc1cc(C)cc(Oc2coc3c(CN(C)C)c(O)ccc3c2=O)c1 | -12.0% | -0.4%
COc1cccc2cc(C(C)N(CCCN3CCOCC3)C(=S)Nc3ccccc3C)oc12 (stereo not drawn) | -17.1% | 6.8%
CC(C)Cc1nnc(NC(=O)CS(=O)(=O)Cc2ccccc2)s1 | -20.8% | -15.3%
Nc1nnc(SCC(=O)Nc2ccc(Cl)cc2)s1 | -16.2% | -6.1%
CC(C)(C)NC(=O)C(OC(=O)c1cccs1)c1ccc(F)cc1 (stereo not drawn) | i | -12.9%
O=C(COC(=O)[C@@H]1CC(O)CN1S(=O)(=O)c1ccc(Cl)c(Cl)c1)NC(=O)NCc1ccccc1 (stereo partly drawn) | -7.0% | -10.9%
Clc1ccc(-c2nnc(C34CC5CC(CC(C5)C3)C4)o2)cn1 | i | -2.2%
COC(=O)c1ccc(NC(=O)C(=O)N2CCN(C(=S)Nc3cccc(C)c3C)CC2)cc1 | -19.1% | -13.2%
CCCCc1ccc(S(=O)(=O)NC(=O)C2(C)CCN2C(=O)Cc2ccccc2)cc1 (stereo not drawn) | i | 2.6%
Cc1csc(N/N=C\c2cccnc2)n1 | i | 0.6%
COc1ccc(-c2nc3n(n2)C(c2ccccc2)C(C(=O)Nc2cccnc2)=C(C)N3)cc1 (stereo not drawn) | -0.9% | -10.7%
C/C(CC1CC(C)(C)OC1=O)=N\NC(N)=S (stereo not drawn) | -0.9%[7.34 µM] | -14.4%[7.34 µM]
CCN(CC)S(=O)(=O)c1nnc(NC(=O)COc2ccc(Cl)cc2)s1 | -4.7% | -3.3%
COc1ccc(-c2sc3ccc(OC)cc3c2C#CCCO)cc1 | -0.2% | ?
COc1ccc(OCCCC(=O)OCC(=O)Nc2sccc2C(N)=O)cc1 | -15.9% | -5.3%
CCOc1cc(/C=C2\C(=O)N(CCc3ccc(OC)c(OC)c3)C(C)=C2C(=O)OC)ccc1O | i | -2.8%
O=C(Cc1cccs1)NC1(C(=O)NC2CCCC2)CCCCC1 | -15.6% | -10.3%
O=C(Nc1cccc(-c2nc3ccccc3c(=O)o2)c1)c1ccccc1 | i | -5.1%
CCOC(=O)C1(C)NC(c2cccs2)C2C(=O)N(c3ccc(C)cc3)C(=O)C21 (stereo not drawn) | i | -3.8%
O=C(CN1c2ccc(Br)cc2-c2ccccc2S1(=O)=O)N1CCCCC1 | -4.7% | -1.9%
C[n+]1ccc(/C=C/c2ccc3c(c2)OCO3)c2ccccc21 | 27.7% | 20.2%
CCOC(=O)c1c(C)[nH]c(C)c1C(=O)CSc1nncs1 | -11.0% | -6.6%
Cc1ccc(-n2cnc3c(sc4nccc(N(C)C)c43)c2=O)cc1 | . | -5.8%
CCSc1nc2ccccc2c(OCc2ccccc2Cl)c1C(=O)OC | -10.7% | 0.0%
CC(Oc1ccccc1)C(=O)Nc1ccc(S(=O)(=O)N2CCN(C)CC2)cc1 (stereo not drawn) | -16.7% | -8.3%
CC1(C)Cc2cccc(C(=O)Nc3ccncc3)c2O1 | ? | -20.7%
COCC(=O)OCC(=O)Nc1ccccc1-c1ccccc1 | -15.4% | -6.7%
Cc1cc(Nc2cccc(Cl)c2)nc2ccc(NC(=O)c3cccc(N(C)C)c3)cc12 | -25.0% | -19.3%
O=C(Nc1ccc(Cl)cc1)c1nc[nH]c1C(=O)NCc1ccccc1 | ? | ?
Cc1cccc(CSc2ncnc3ccccc23)c1 | -18.5% | -20.4%
O=C(CCCN1C(=O)c2ccccc2C1=O)NC1=NCCS1 | -20.6% | -2.6%
COc1ccc(OC)c(CCNC(=O)CN2C(=O)COc3ccc(S(=O)(=O)N4CCCCCC4)cc32)c1 | -3.1% | 8.5%
O=C(Cn1cnc2c(nnn2Cc2ccc(Cl)cc2)c1=O)c1ccccc1 | 56.0%[activator] | 11.4%
COCC1CCCCN1Cc1cn(-c2ccccc2)nc1-c1ccc2c(c1)OCO2 (stereo not drawn) | -14.5% | -4.0%
Cc1c(C(=O)NCc2cccnc2)sc2ncn(CC(=O)N3CCCCC3C)c(=O)c12 (stereo not drawn) | 0.8% | 6.5%
Cc1ccc(C(=O)N2CCOCC2)cc1S(=O)(=O)Nc1cccc(C)c1C | . | -12.6%
CSc1nc(Cl)cc(N2CCOCC2)n1 | -13.4% | -10.2%
Cc1ccc(S(=O)(=O)NC2=NCN(C(C)C)CN2)cc1 | -0.8% | 0.9%
